GLP-1R inv ag = acts as inverse agonist at human GLP-1 receptor | P43220 | HEK293 GLP-1R CRE-luciferase, luminescence, 24 h; GLP-1R form is constitutively active | 410,000 tested, 1.6% active | AID 624417 | Potency, µM (doses to about 38.3 µM), inactives show at the top dose activity change, negative = inhibition, usual class: inhibitors; note: potency is the fitted concentration of half-maximal effect; % is set by controls: 0 for no effect and ±100 for the full control effect; nearly all actives have a fitted effect of over 55% in size
Target sequence (P43220 whole entry, looked up): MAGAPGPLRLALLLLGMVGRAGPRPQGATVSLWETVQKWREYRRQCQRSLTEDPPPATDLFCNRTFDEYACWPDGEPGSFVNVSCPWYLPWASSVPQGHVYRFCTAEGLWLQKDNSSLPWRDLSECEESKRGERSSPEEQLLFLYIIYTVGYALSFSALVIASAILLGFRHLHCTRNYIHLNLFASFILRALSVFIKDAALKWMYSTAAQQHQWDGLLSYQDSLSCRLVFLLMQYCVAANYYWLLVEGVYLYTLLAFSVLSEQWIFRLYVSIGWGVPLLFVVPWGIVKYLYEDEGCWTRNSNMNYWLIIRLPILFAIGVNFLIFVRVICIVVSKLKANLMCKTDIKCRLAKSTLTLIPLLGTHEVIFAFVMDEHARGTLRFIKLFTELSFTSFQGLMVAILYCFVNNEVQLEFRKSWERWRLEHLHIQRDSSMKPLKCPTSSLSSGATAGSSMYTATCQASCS
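HEK293 cells stably co-expressing constitutively active GLP-1R and a cAMP-responsive luciferase reporter were seeded in DMEM with 10% Nu serum, given compounds after 12 h, and incubated 24 h at 37 deg C. Luminescence was then read.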
FUS yeast rescue = FUS proteinopathy suppression in yeast; S. cerevisiae FUS-expressing, growth rescue, OD600, 24 h; Potency, µM (series often up to 76.6 µM), for inactives: at the top dose growth rescue (activation), most hits filed as activators; 390,000 tested, 0.24% active;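 note: potency is the fitted concentration of half-maximal effect; plate controls were DMSO vehicle for no effect and reference control for full effect; nearly all actives have a fitted effect of over 55% in size; some results filed as inactive show a strong effect at the top dose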
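Compound concentration series was pinned onto galactose-induced FUS-expressing yeast seeded at OD 0.005. Plates sat 24hr at 30C; absorbance at 600 nm gave growth. DMSO served as background control.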
Akt phos inh = Akt phosphorylation inhibition; Neuro2A IGF-stimulated pAkt S473 HTRF, 20 min; hits give low values; activity change, % for hits at 50 µM; 360,000 tested, 0.32% active; AID 651550; in the data active = activity change below about -80%; inconclusive = mostly about -51% to -80%; note: % is set by controls: 0 for no effect and ±100 for the full control effect
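Neuro2A cells (4,500/well, DMEM with 0.5% FBS) were treated with compound at a single 50 µM final concentration, stimulated with 6 nM IGF for 20 min at 37 °C, and lysed. Phospho-Akt Ser473 was read by HTRF as 665/615 ratio ×10^4.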
HEK293 tox = cytotoxic in the GLP-1 receptor inverse agonist counter-screen. HEK293 cAMP-luciferase reporter cells, luminescence, 24 h. Potency, µM (top dose mostly 38.3 µM), for the others: at the highest dose activity change, negative = inhibition, most hits filed as inhibitors. 410,000 tested, 0.13% active. AID 624418;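 note: loss of luciferase light is scored as toxicity; potency is the fitted concentration of half-maximal effect; % is set by controls: 0 for no effect and ±100 for the full control effect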
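To flag toxic compounds, the library was rerun on cells for 24 hr at 37 deg C and 5% CO2. Viability-linked luminescence was captured 12 min after adding luciferase detection reagent.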
Abeta rescue = A-beta toxicity reversal in yeast; AID 1347071; yeast expressing A-beta42, growth rescue, OD600, 48 h; response scale: 0% DMSO, 100% iron-clioquinol control; 410,000 tested, 0.063% active; Potency, µM (doses to about 46.1 µM), for the others: top-dose growth rescue, actives largely listed as activators; note: potency is the fitted concentration of half-maximal effect; nearly all actives have a fitted effect of over 55% in size
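Yeast A-beta toxicity model in growth medium with pinned compounds, 48 h at 30 C; growth read as absorbance at 600 nm. Normalized to FeCl3/clioquinol equimolar mix (positive) and DMSO (negative).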
TDP43 rescue = inhibitors of TDP-43 toxicity in yeast; TDP-43 expressing yeast growth rescue, BacTiter-Glo, 24 h; 410,000 tested, 1.8% active; Potency, µM (series often up to 46.1 µM), for inactives: top-dose growth rescue (activation), usual class: activators; note: potency is the fitted concentration of half-maximal effect; % of control where 0% means no effect; nearly all actives have a fitted effect of over 50% in size
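Yeast cells expressing TDP-43 under galactose induction are exposed to compounds for 24 hr at 30 deg C. BacTiter-Glo luminescence measures growth, so protective compounds score as activators.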
aSyn rescue = alpha-synuclein toxicity inhibition in yeast | 370,000 tested, 0.14% active | Potency, µM (series often up to 46.1 µM), without a hit: at the top dose growth rescue (activation), hits mostly activators | Yeast expressing alpha-synuclein, growth rescue, BacTiter-Glo, 24 h; note: potency is the fitted concentration of half-maximal effect; % of control where 0% means no effect; nearly all actives have a fitted effect of over 65% in size
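Screening used galactose-induced yeast with toxic alpha-synuclein levels, exposed to compound for 24 hr at 30 deg C. Cell growth, read with BacTiter-Glo luminescence, gave the measured signal.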
MmCpn inh = blocks the Methanococcus maripaludis chaperonin Mm-Cpn. purified Mm-Cpn ATPase, ADP Transcreener TR-FRET. Potency, µM (titrated, usually from 76.9 µM), without a hit: at the highest dose activity, negative = inhibition, usual class: inhibitors. 330,000 tested, 0.031% active. AID 504842; note: potency is the fitted concentration of half-maximal effect; % is set by controls: 0 for no effect and ±100 for the full control effect; nearly all actives have a fitted effect of over 80% in size
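ATPase turnover read by TR-FRET ADP competition (Eu cryptate antibody/ADP-d2, 665/590 nm): 10uM ATP final, 25nM Mm-CPN final, 30 min 37degC after 10-min compound preincubation, pH 7.4 Tris/KCl/MgCl2/DTT buffer.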
Starred values were filed as active, the others as inactive; i = inactive; ? = inconclusive; . = not tested or not shown; & = joins results of further samples; [ ] = remark or other dose. Unless noted, calls come from the whole dose curve; as a rule, active = well fitted curve in the direction sought with a large enough effect; inconclusive = small, poorly fitted or top-dose-only effect, or another doubt; inactive = no such curve, though single readings can be large; an effect the other way counts as inactive or inconclusive.

Each structure is followed by: GLP-1R inv ag	FUS yeast rescue	Akt phos inh	HEK293 tox	Abeta rescue	TDP43 rescue	aSyn rescue	MmCpn inh
> O=c1ccn(Cc2ccc(F)cc2)c2ccnc(C(F)(F)F)c12
  -5%	-10%	i	3%	10%	13%	-3%	-1%
> CCC(=O)N1C(C(=O)N2CCCC2)CSC1c1ccc(OC)cc1 (centres undefined)
  -17%	-6%	i	-22%	9%	0%	2%	2%
> Cc1ccc(C(=O)NCC(=O)NCC(=O)OCC(=O)c2ccc(Br)cc2)cc1
  11%	18%	i	10%	-16%	-24%	-6%	-1%
> CCC(CC)C(=O)NC12CC3CC(CC(C3)C1)C2
  18%	-26%	i	-16%	4%	4%	-3%	0%
> CCN(CC)c1cc(NCCO)c([N+](=O)[O-])c2nonc12
  58%[activator]	5%	i	?	-5%	-9%[0.397 µM]	-1%	-6%
> CCN(CC)C(=O)CSc1nc2cc(OC)c(OC)cc2c(=O)n1Cc1ccc(Cl)cc1
  0%	-3%	.	-3%	13%	7%	.	0%
> Cc1nn2c(-c3ccco3)ccnc2c1-c1ccc(Br)cc1
  9%	9%	.	1%	-14%	23%	.	.
> O=C(O)CN1C(=O)SC(Nc2ccc(Cl)cc2)C1=O (centres undefined)
  ?	8%	i	-7%	-4%	-1%	-14%	1%
> CCOc1ccc(Cl)cc1CNCCCSc1nnnn1C
  ?	-29%	.	-7%	-6%	0%[9.22 µM]	.	.
> CC1CN(CCCCOc2ccc(C(C)C)cc2)CC(C)O1 (centres undefined)
  ?	0%	i	-6%	-55%[inhibitor]	-23%	-6%	-1%
> COc1ccccc1C(CC(=O)Nc1ccc(Cl)cc1)c1ccc(OC(C)C)cc1 (centres undefined)
  ?	0%	i	1%	2%	26%	-17%	-1%
> Cc1cccc(C)c1NC(=O)Cn1nc(-c2ccccc2)nc1-c1ccccc1
  -4%	0%	i	4%	-2%	15%	5%	2%
> FC(F)(F)c1ccccc1NC(=S)N1CCN(c2ncccn2)CC1
  -39%	-7%	i	-13%	14%	10%	6%	0%
> CC1(C)CC(/C=C/c2ccccc2)=Nc2ccccc2N1
  ?	9%	i	-10%	18%	-7%	-1%	1%
> CC(C)N(C(=O)COC(=O)[C@H](C)NC(N)=O)c1ccccc1
  -4%[0.307 µM]	7%	i	6%[0.307 µM]	22%	-16%	3%	0%
> COc1cc(Br)c(CC(=O)O)cc1OC
  7%	-10%	i	0%	12%	-8%	0%	1%
> CC1CCN(CCCNc2cc(NCCO)c([N+](=O)[O-])c3nonc23)CC1
  13%	15%	i	-20%	1%	-7%	1%	0%
> CC(=O)N/C(=C\c1ccccc1)C(=O)OC(C)C(=O)N(C)c1ccccc1 (centres undefined)
  -24%	7%	i	4%	-2%	-22%	-2%	-2%
> CCc1ccccc1NC(=O)Nc1cc(F)ccc1F
  ?	-16%	i	3%	-2%	3%	-8%	0%
> CCN1CCCC1CNS(=O)(=O)c1ccc(Cl)c(C(F)(F)F)c1 (centres undefined)
  -13%[7.66 µM]	14%	i	-10%[7.66 µM]	20%	4%	0%	-1%
> C[C@H](NC(=O)c1[nH]cnc1C(=O)Nc1ccc(CNC(=O)OC(C)(C)C)cc1)C(=O)OC(C)(C)C
  ?	?	i	-17%	12%	21%	-1%	2%
> COc1ccc(Cl)cc1NC(=O)C(C)N(C)Cc1ccc(C(F)(F)F)cc1 (centres undefined)
  8.9µM*	5%	i	63%[activator]	-10%	-14%	-18%	2%
> CC(C)[C@H](NC(=O)c1ccccc1)C(=O)OCC(=O)c1ccc2c(c1)NC(=O)CO2
  -8%	8%	i	-6%	-4%	?	-11%	0%
> COC(=O)[C@H](CC(C)C)NS(=O)(=O)N(Cc1ccccc1)[C@@H](CC(C)C)C(=O)OC
  -4%	?	i	-24%	10%	-6%	-9%	-1%
> O=C(c1noc2c1CCCCC2)N1CCOCC1
  0%	9%	i	8%	-23%	-16%	-1%	2%
> O=C(CCN1CCCCCC1)Nc1ccc(F)cc1
  -31%	14%	i	-3%	-4%	-37%[inhibitor]	13%	-2%
> Cc1cc(=O)[nH]c2nnc(SCc3ccc(Cl)cc3)n12
  7%	15%	.	0%	-14%	1%	.	.
> CC(=O)N1CCN(Cc2nc3cc(NC(=O)Cn4nc(C)c5ccccc5c4=O)ccc3n2C)CC1
  33%[activator]	.	i	18%	3%	-29%	-1%	2%
> COc1ccc(S(=O)(=O)N2CCN(Cc3cc4c(cc3Br)OCCO4)CC2)cc1
  -8%	.	i	6%	5%	6%	2%	.
> COC(=O)CCN(C(=O)C1C2CC3CC(C2)CC1C3)c1ccccn1 (centres undefined)
  -4%	5%	i	-15%	15%	5%	9%	0%
> CCCCn1nc(NC(=O)CC(C)C)c2cc3cc(OC)ccc3nc21
  -6%	23%	i	41%[activator]	4%	-16%	-10%	0%
> CCOC(=O)N1CCN(Cc2nc3cc(NC(=O)CC(C)C)ccc3n2C(C)C)CC1
  ?	4%	.	?	10%	10%	.	.
> COc1ccc(NC(=O)C(c2cc3c(cc2[N+](=O)[O-])OCO3)N(C)C)cc1 (centres undefined)
  14%	3%	i	-7%	-2%	0%	1%	2%
> NC(=O)C(c1ccc(Cl)cc1)c1ccc(Sc2ccc(Cl)cc2)nn1 (centres undefined)
  ?	30%	i	-9%	19%	7%	15%	0%
> Cc1ccc(CCNc2nc3ccccc3c3nc(-c4ccccc4)nn23)cc1
  -6%	12%	.	-3%	-22%	1%	.	.
> CC(C)C[C@H](NC(=O)c1nc[nH]c1C(=O)NC1CCNCC1)C(=O)OCc1ccccc1
  -20%	-3%	i	2%	-16%	-16%	-8%	2%
> O=S(=O)(NCc1ccc2c(c1)OCO2)c1ccccc1F
  14%	1%	i	-10%	14%	-24%[1.82 µM]	0%	4%
> Cc1ccc(CNC(=O)CCS(=O)(=O)c2cccc3nonc23)cc1
  0%	36%	i	6%	-6%	12%	-3%	-5%
> O=C(C1CCCN(CCCc2ccccc2)C1)N1CCCCC1 (centres undefined)
  23%	-21%	i	0%	5%	12%	1%	-3%
> CC(=O)Nc1ccc(-c2csc(-c3cccnc3)n2)cc1
  22%	5%	i	?	-6%	-4%	1%	-5%
> CCOC(=O)[C@@H](C)NS(=O)(=O)N(Cc1ccccc1)[C@H](C(=O)OC)C(C)C
  -27%	17%	i	2%	15%	-3%	9%	-5%
> CC(C)NCC(O)c1ccc(O)c(O)c1 (centres undefined)
  37%[activator]	-44%	i	-14%	-8%	25%	3%&4%	1%
> Cc1ccc(/C=C2/Sc3ccc(C(=O)N4CCN(C)CC4)cc3NC2=O)cc1
  ?	9%	i	14%	-50%[inhibitor]	-41%[inhibitor]	-1%	-1%
> COc1ccc(/C=C2\N=C(C)N(c3ccc4ccccc4c3)C2=O)cc1OC
  4%	10%	i	5%	-4%	13%	-9%	0%
> CCc1ccccc1NC(=O)Cn1c(=O)n(-c2ccc(C)c(C)c2)c(=O)c2oc3ccccc3c21
  10%	-12%	.	-6%	-1%	-9%	.	.
> Cc1nn2c(-c3ccco3)ccnc2c1-c1ccc(F)cc1
  8%	-2%	.	-3%	-9%	0%	.	.
> CCn1c(C)nc2cc(C(=O)N/N=C(\C)c3ccc(N4CCOCC4)cc3)ccc21
  9%	5%	i	-7%	-12%	5%	-3%	4%
> O=c1c2cc3c(cc2nc2sc(Nc4cccc([N+](=O)[O-])c4)nn12)OCO3
  0%	8%	.	6%	-15%	6%	.	.
> COCCn1c(SCC(=O)N2CC(=O)Nc3ccccc32)nnc1-c1ccoc1C
  -6%	4%	i	2%	-3%	2%	8%	1%
> CCOC(=O)c1c(-c2ccccc2)nnn1-c1nc(OC)nc(N2CCOCC2)n1
  17%	-17%	i	-4%	-7%	-7%	-4%	0%
> COc1cccc(/C=N\n2c(C)nnc2C)c1OC
  27%	16%	i	-5%	-6%	-24%	-8%	-3%
> O=[N+]([O-])c1c(NCCCO)cc(N2CCCCCC2)c2nonc12
  62%[activator]	17%	i	?	-25%	-22%	-2%	2%
> CC12CCC(C/C1=N\N=C1\NC(=O)/C(=C\c3cccc(Br)c3)S1)C2(C)C (centres undefined)
  ?	9%	i	?	-1%	4%	4%	1%
> CN(C(=O)Cn1cnc2sccc2c1=O)C1CCCCC1
  -2%	19%	i	-4%	-4%	-12%	-5%[1.84 µM]	0%
> Cc1ccccc1NC(=O)Cn1c(=O)n(Cc2ccc3c(c2)OCO3)c(=O)c2oc3ccccc3c21
  2%	-15%	.	-10%	1%	?	.	.
> CCC(NS(=O)(=O)c1ccc2c(c1)NC(=O)C(C)C(=O)N2)c1cccs1 (centres undefined)
  23%	3%	i	-6%	-4%	-15%	-3%	-8%
> CN1CCN(C(=O)c2ccc3c(c2)NC(=O)/C(=C/c2ccccc2)S3)CC1
  ?	14%	i	-23%	-29%	-24%	-4%	1%
> O=C1NCCN(CC2CCN(CCc3ccc(Cl)c(Cl)c3)CC2)C1=O
  -5%	-17%	i	4%	-7%	-5%	-1%	.
> Cn1nnnc1SCCCNCc1ccccc1OCc1ccc(F)cc1
  -26%	2%	.	-13%	-18%	3%[9.22 µM]	.	.
> COc1cccc(NC(=O)c2sc(-n3nc(C)c(Cc4ccccc4Cl)c3C)nc2C)c1
  3%	18%	.	-1%	-18%	-5%	.	.
> CC(C)NC(=O)c1ccc(CNC(=O)OCC(F)(F)F)cc1
  -25%	-12%	i	-11%	-9%	-12%	0%	?
> Cc1cccc(NC(=O)c2nc[nH]c2C(=O)N[C@@H](C)C(=O)OC(C)(C)C)c1
  ?	14%	i	-37%	14%	?	?	0%
> CCOc1ccc(/C=N/n2c(C)nnc2C)cc1OC
  11%[7.66 µM]	11%	i	-4%[7.66 µM]	-1%	11%[9.22 µM]	-11%	-1%

Not all compounds are listed; count on the stated rates, not on these rows.
